# Screening results from PubChem.
# Yeast UUG start: yeast start codon fidelity modulation | S. cerevisiae UUG-firefly luciferase reporter, luminescence/redox ratio | activity score, % at 18.7 µM | actives 0.13% (n = 350,000);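 active = replicate mean at a twofold rise or more, about +100% in these data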;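 also: firefly luciferase made from a UUG start codon reports start codon fidelity; reporter light over untreated wells divided by growth signal over untreated wells; some hits fall short of that in this replicate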
# eIF4H inh: inhibitors of RNA binding by human eIF4H | Q15056 | eIF4H fluorescence polarization binding assay | inhibition, % at 35 µM | actives 0.94% (n = 290,000) | AID 2012;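 active = 50% or more with normal probe brightness, or confirmed in later tests; about a fifth of its hits are not listed in these tables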;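 also: calls also rest on retests at 20 µM and on dose response follow-up; 0% = protein and probe with vehicle and 100% = probe without protein; strong numbers were not always called active; many hits fall short of the cut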
# PABP polyA inh: blocks human PABP binding to poly(A) RNA; fluorescence polarization; inhibition, % at 35 µM; actives 1% (n = 290,000);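 active = 50% or more with normal probe brightness, or confirmed in later tests; about a fifth of its hits are not listed in these tables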;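 also: calls also rest on retests at 20 µM and on dose response follow-up; controls were probe without protein and protein plus probe with vehicle; some compounds called inactive have numbers as strong as hits; many hits fall short of the cut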
# Target sequence (P11940 whole entry, looked up): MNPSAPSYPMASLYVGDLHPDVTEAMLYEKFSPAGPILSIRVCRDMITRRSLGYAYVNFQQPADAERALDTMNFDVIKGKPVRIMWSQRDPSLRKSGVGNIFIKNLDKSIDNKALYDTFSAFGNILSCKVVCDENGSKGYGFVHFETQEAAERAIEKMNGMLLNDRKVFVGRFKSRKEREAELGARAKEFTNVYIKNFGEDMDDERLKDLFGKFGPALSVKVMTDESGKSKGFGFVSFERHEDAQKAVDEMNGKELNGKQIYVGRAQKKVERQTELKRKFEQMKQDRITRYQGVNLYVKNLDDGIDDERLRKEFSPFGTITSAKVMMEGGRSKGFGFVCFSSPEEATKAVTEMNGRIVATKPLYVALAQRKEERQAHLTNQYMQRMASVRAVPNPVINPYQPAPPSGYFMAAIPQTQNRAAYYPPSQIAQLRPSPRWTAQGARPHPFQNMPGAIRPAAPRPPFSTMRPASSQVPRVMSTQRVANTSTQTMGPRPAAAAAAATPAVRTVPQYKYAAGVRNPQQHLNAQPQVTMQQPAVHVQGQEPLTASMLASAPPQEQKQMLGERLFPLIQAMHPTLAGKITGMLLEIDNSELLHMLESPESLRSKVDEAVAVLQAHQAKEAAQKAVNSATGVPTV
# Env fusion inh: HIV envelope-mediated fusion inhibition; actives 1.1% (n = 360,000); inhibition, % at 12.3 µM; HeLa-JRFL Env/CEM21 cell fusion, luciferase; AID 651610;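 active = mean replicate inhibition score of at least 50 and every replicate individually at or above 50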;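 also: 0% = plate neutral controls and 100% = maraviroc near 300 nM; one replicate is shown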
# Rce1 inh: inhibitors of yeast Ras-converting enzyme. yeast membranes, quenched prenylated peptide cleavage fluorescence. calls only. actives 0.27% (n = 290,000);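 active = fall in fluorescence gain of 50% or more versus controls, with final raw signal at or below 3038400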;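 also: plate controls were neutral control wells for no effect and wells lacking membranes for full effect; tested at 10 µM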
# Target sequence (Q03530 whole entry, looked up): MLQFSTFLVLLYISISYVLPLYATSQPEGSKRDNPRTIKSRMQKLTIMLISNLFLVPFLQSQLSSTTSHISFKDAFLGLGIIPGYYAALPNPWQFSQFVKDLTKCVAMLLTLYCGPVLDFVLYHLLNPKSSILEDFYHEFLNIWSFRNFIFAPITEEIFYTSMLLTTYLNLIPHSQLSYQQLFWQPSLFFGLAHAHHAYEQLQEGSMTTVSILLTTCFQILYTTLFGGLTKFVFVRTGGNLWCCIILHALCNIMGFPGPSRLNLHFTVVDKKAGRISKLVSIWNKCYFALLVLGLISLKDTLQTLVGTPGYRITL
# MT1-MMP act inh: blocks activation of human MT1-MMP; GFP/RFP ratio change, % at 20 µM; actives 0.061% (n = 360,000); HT1080 RFP-PRO-GFP cells, GFP/RFP ratio fluorescence, overnight; percent of plate control window, DMSO zero;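 active = GFP/RFP ratio change of at least 30% with cell ATP level not reduced by more than half and red fluorescence within 50% of control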; also: strong numbers were not always called active
#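 system = RFP-PRO-GFP reporter HT1080 cells | dosing = 20 µM single dose, 1% DMSO | timing = overnight cell settling, then overnight compound exposure, 37 °C, 5% CO2 | read-out basis = GFP/RFP fluorescence ratio | controls = DMSO and RFP-L50D-GFP cell wells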
# CSC inhib: cancer stem cell inhibition. cancer stem cell-like cells viability, luminescence. inhibition, % at 7.5 µM. actives 1.1% (n = 300,000). AID 2717;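 active = mean at 75% or more and at least half the replicates too; tested in HMLE shEcad cells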;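 also: 0% = median of negative and 100% = median of positive control wells; the first replicate is given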
# eIF4H inh retest: second read-out of eIF4H inh, no call of its own (marks repeat the call); inhibition, %; compound at 20 µM; confirmation average;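 mean of two retest wells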
# PABP polyA inh retest: also measured in PABP polyA inh; calls as there; inhibition, %; compound at 20 µM; confirmation repeats;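 mean of two retest wells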
# MT1-MMP act inh RFP: recorded beside MT1-MMP act inh, whose call it bears; RFP signal change, %; measured here: RFP expression control read;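 0 = vehicle wells; hits needed this value within 50% of zero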
# Active calls of the source: *; i = inactive; . = not tested or not shown; & = joins results of further samples; ! = not confirmed by another sample; [ ] = another dose, or the depositor's remark.
SMILES,Yeast UUG start,eIF4H inh,PABP polyA inh,Env fusion inh,Rce1 inh,MT1-MMP act inh,MT1-MMP act inh RFP,CSC inhib,others
O=C(NCc1ccccc1F)C1CCCN1C(=O)Nc1ccc(F)cc1 (stereo unspecified),-8,-7,-4,1,i,2,4,1,
COc1ccc(S(=O)(=O)N(C)C[C@@H]2Oc3cc(Br)ccc3S(=O)(=O)N([C@H](C)CO)C[C@@H]2C)cc1,-5&17,.,.,57*!,.,0,-1,.,
O=C(CN1CCN(S(=O)(=O)c2ccc(C(F)(F)F)cc2)CC1)N1CCNC1=O,-16,.,.,.,.,4,6,0,
O=C(c1ccc(CS(=O)(=O)c2cccc(C(F)(F)F)c2)o1)N1CCN(c2ccccn2)CC1,-10,2,-3,19,i,6,-3,-1,
COc1ccccc1NC(=O)N(Cc1ccco1)Cc1cc2ccc(C)c(C)c2[nH]c1=O,0,2,7,.,i,-11,-17,-23,
CN(C(=O)COC(=O)CCc1c[nH]c2ccccc12)c1ccccc1,-11,.,.,-19,i,7,4,.,
CC(C)CCNC(=O)c1cc([N+](=O)[O-])ccc1N1CCOCC1,-31,-15,-1,6,i,1,1,17,
CN1CCN(C(=O)C2CCCN(S(=O)(=O)c3ccccc3)C2)CC1 (stereo unspecified),-15,.,.,1,i,1,4,-17,
COc1cc(-c2[nH]ncc2CN(C)Cc2nonc2C)cc(OC)c1OC,.,-5,1,21,i,-2,-6,-11,
Cc1ccc(C(=O)Oc2ccc3ccc(=O)oc3c2)cc1,-7,7,-36,3,i,3,0,-3,
O=C(CCc1[nH]c2ccccc2c1Sc1ccccc1)N(CCO)CCO,-6,2,12,-10,i,5,6,8,
COc1ccc(NC(=O)Cc2c(Sc3ccccc3)c3ccccc3n2C)cc1,-7,6,-7,29,i,0,-2,-3,
CC(NS(=O)(=O)c1ccc(Cl)cc1)C(=O)N1CCOCC1 (stereo unspecified),-16,-5,0,5,i,2,4,6,
COc1cc(/C=N/n2c(COc3ccccc3)n[nH]c2=S)cc(Br)c1O,-2,6,5,11,i,4,-3,-9,
CCOC(=O)NCc1ccc(S(=O)(=O)Nc2c(C)cccc2C)cc1,-7,3,-1,-12,i,-3,-4,-8,
Oc1c(CN2CCOCC2)cc(CN2CCOCC2)cc1CN1CCOCC1,2,.,.,3,.,1,4,.,
CCOC(=O)c1c(NC(=O)COC(=O)CCS(=O)(=O)c2ccc(C)cc2)sc(C)c1C,.,-9,-4,-38,i,-4,-2,4,
O=C(Oc1ccc(OC(=O)N2CCOCC2)cc1)c1ccccc1,-15,-11,-5,.,i,-1,1,-11,
CCC1(CC)Cc2ccccc2-c2nc3ccccc3c(=O)n21,-1,-2,-11,-3,i,-4,-5,2,
O=C(NC(=S)N1CCN(C(c2ccccc2)c2ccccc2)CC1)c1ccc(S(=O)(=O)N2CCOCC2)cc1,-1,5,-1,.,i,-2,-8,-11,
Cc1cc(C)nc(SCc2nnc(SCC(=O)N3CCOCC3)o2)n1,0,5,-7,-49,i,4,5,-2,
COc1cc2ccccc2cc1C(=O)Nc1nccs1,-10,-9,-4,-165,i,-5,-2,-5,
CC1=C(C(=O)OCc2ccccc2)C(c2ccoc2)C(C#N)=C(N)O1 (stereo unspecified),89,12,36,-24,i,-15,-6,-11,
Cc1cccnc1N(C(=O)Nc1ccccc1)C1=NCC(C)(C)S1,-7,-10,-10,-25,i,-4,0,3,
COc1cc(C(=O)NCC2(N3CCCCC3)CCCCC2)ccc1OCC(=O)N1CCOCC1,.,-4,4,3,i,0,1,-10,
O=C1CCCN1c1ccc(C(=O)N(Cc2nnc(-c3ccccc3Cl)o2)C2CC2)cc1,3,.,.,7,.,2,-8,6,
Cc1nnc(NC(=O)CCNC(=O)c2ccccc2Cl)s1,.,1,-12,11,i,-1,2,-8,
COc1ccc(NC(=O)C2CC3CCC2C3)c(OC)c1 (stereo unspecified),-9,.,.,5,i,2,-3,.,
COc1ccc(C(C(=O)OCCN(C)C)c2ccccc2)cc1 (stereo unspecified),4,9,8,.,i,4,1,15,
COc1ccc(-n2c(=O)c3ccccc3n(CC(=O)NC3CCCCC3)c2=O)cc1OC,-15,-5,9,-1,i,-6,0,3,
COc1ccccc1CNC(=O)C1CCC(=O)N(CCCc2ccccc2)C1 (stereo unspecified),-12,-9,9,5,i,1,4,-10,
CCOC(=O)c1cnn(C(=O)c2ccccc2)c1N,.,-12,-3,6,i,-1,-2,.,
Cc1cc(C)cc(NC(=S)N(CCCN2CCN(C)CC2)Cc2cccs2)c1,-17,4,-8,-5,i,0,3,10,
Cc1ccsc1C(=O)N1CCCC(CO)(Cc2ccccc2F)C1 (stereo unspecified),1,-7,-1,2,i,1,0,-8,
Cc1ccc(OCC(=O)NCCNC(=O)c2cnccn2)cc1C,-23,-4,8,-43,i,6,6,.,
CCOC(=O)CNC(=O)C(Cc1ccccc1)NC(=O)OCc1ccccc1 (stereo unspecified),.,-14,-10,15,i,-2,3,-1,
CC(=O)c1cc(C#N)c(SCc2ccccn2)nc1C,14,-3,4,-21,i,2,-1,-8,
COCCn1c(N/N=C(C)/C=C/c2ccccc2)nc2c1c(=O)[nH]c(=O)n2C,.,-4,-2,.,i,.,.,-10,
CCOC(=O)C1(Cc2cccc(OC)c2)CCN(C2CCOCC2)CC1,.,7,5,-16,i,4,2,11,
C#CCNC(=O)C1=C[C@H](c2coc3ccccc3c2=O)C[C@H](OCc2ccc(CO)cc2)O1,-2&-9,1,-2,-8[16.7 µM],i,1,3,-4,
COc1ccc(CNC(=O)CN(C(=O)c2csnn2)c2ccc(F)cc2)cc1,-18,-8,-2,2,.,1,4,-14,
Cn1c(SCCOc2cccc(Cl)c2)nnc1-c1ccncc1,-17,2,4,.,i,2,0,-2,
COc1cc(C(=O)N2CCCc3ccccc32)cc(OC)c1OC,-12,1,6,.,i,-3,-7,24,
CCOC(=O)c1c(NC(=O)CSc2nc3nc(C)cc(C)n3n2)sc(CC)c1C,-14,-9,5,-2,.,0,-1,-11,
CCOC(=O)C1(CC2CCCCO2)CCN(Cc2cccnc2)CC1 (stereo unspecified),1,-6,-10,4,.,-2,0,-7,
NS(=O)(=O)c1ccc(NC(=O)NC2CCCCC2)cc1,-17,0,-10,.,i,-1,-4,-6,
COc1cc2c(C#N)c(N3CCc4ccccc4C3)nc(N)c2c(N)n1,502*,122*,116*,46,i,.,.,6,eIF4H inh retest=106*;PABP polyA inh retest=104*
O=C(CNC(=O)c1sc2ccccc2c1Cl)Nc1ccccc1F,-12,.,.,-11,i,-1,-2,-5,
Cn1c(O)c(N=NC(=N)N)c2ccccc21,.,9,-16,-2,i,-1,-4,-17,
CS(=O)(=O)N(Cc1ccccc1)c1ccc(C(=O)Nc2ccccc2C(=O)O)cc1,-24,-5,6,-7,i,-2,-2,1,
Cc1ccc(S(=O)(=O)N2CCN(C(=O)COC(=O)CNC(=O)c3ccc(Cl)cc3Cl)CC2)cc1,10,.,.,-1,i,2,-3,-7,
CCOc1ccccc1CNC(=O)CNC(=O)c1cccs1,-23,0,6,.,i,-1,2,-7,
CC1=Nn2c(nnc2-c2ccccc2Cl)SC1,-12,-10,2,-44,i,-1,3,-17,
COc1ccc(CCNC(=O)C23CN(Cc4ccccc4)CC2C(c2cccc([N+](=O)[O-])c2)=NO3)cc1 (stereo unspecified),2,-15,-6,17,i,-2,-3,-9,
Cc1onc(-c2c(Cl)cccc2Cl)c1C(=O)Nc1c(C)n(C)n(-c2ccccc2)c1=O,.,3,4,.,i,0,1,.,
COc1cc(S(=O)(=O)NC2CCCC2)ccc1F,-23,4,2,-7,i,-2,4,-10,
Cc1ccc(CNC(=O)CCC2CCCN(Cc3cc4ccccc4o3)C2)o1 (stereo unspecified),3,-2,15,6,i,0,4,5,
Cc1ccc(/C([O-])=C(/C(=S)NCc2ccco2)[n+]2ccccc2)cc1,.,76*,84*,.,i,.,.,10,
CCOc1ccc(CCNC(=O)Cn2c(=O)c3cccn3c3cccnc32)cc1,-7,2,-6,8,i,-5,-1,-8,
COCCN1Cc2cccc(C(=O)Nc3ccc(C)cc3)c2C1=O,.,-11,4,-12,i,5,0,5,

# Additional entries follow.
SMILES,Yeast UUG start,eIF4H inh,PABP polyA inh,Env fusion inh,Rce1 inh,MT1-MMP act inh,MT1-MMP act inh RFP,CSC inhib,others
Cc1ccc(NC(=O)N2CCCC(C(=O)O)C2)cc1 (stereo unspecified),-10,0,-2,0,i,4,8,-3,
CC(C)(C)c1ccc(C(=O)NCc2ccc(Cl)cc2)cc1,-7,7,-2,-61,i,-4,0,4,
Cc1ccccc1NC(=O)OCc1ccccc1,-10,-3,-13,-6,i,-3,-2,4,
Cc1c(NC(=O)CS(=O)(=O)c2ccccc2)c(=O)n(-c2ccccc2)n1C,-10,2,3,5,i,-5,1,-11,
Cc1cc2ncn(CCOc3ccccc3C#N)c2cc1C,-22,-1,-6,.,i,1,-2,8,
O=C(CN1CCOc2ccccc21)NCc1ccccc1,-30,5,28,4,i,1,2,-15,
COC(=O)C(C)NC(=O)c1ccc(C(C)(C)C)cc1 (stereo unspecified),.,-8,17,-19,i,1,0,3,
COc1cccc(NC(=O)Cn2cnc3c(oc4nc5c(cc43)CCCC5)c2=O)c1,-10,7,-1,-1,i,0,2,17,
CC(=O)Nc1ccc(NC(=O)CSc2nnc(-c3cccnc3)o2)cc1,-2,.,.,43,i,1,0,-9,
CCCCn1c(=O)[nH]c(=O)c2c1nc(Cn1ncc(Cl)c(Cl)c1=O)n2CCC,2,4,2,-112,i,-12,-13,-2,
COC(=O)Nc1ccc2ncn(C)c(=O)c2c1,-3,-1,4,1,i,0,4,-13,
COc1cccc(C(=O)N(CN2CCCC2=O)c2cccc(Cl)c2)c1,.,0,-1,-61,i,-1,-1,11,
S=c1[nH]nc(-c2ccc(Cl)cc2Cl)n1-c1ccc(Cl)cc1,10,-4,8,-6,i,3,7,-8,
C=C(C)Cn1c(N2CC(C)CC(C)C2)nc2c1c(=O)[nH]c(=O)n2C (stereo unspecified),-13,-10,-1,8,i,1,-2,-11,
CC(C)(C)c1ccc(C(=O)NCC(=O)O)cc1,.,-12,-2,-6,i,-3,4,.,
NNC(=O)C1CCN(S(=O)(=O)c2ccc(Cl)cc2)CC1,.,.,.,13,i,-1,4,-4,
Cc1ccccc1-c1n[nH]nc1C1=CC(=O)C[C@H](c2ccc(F)cc2)C1,1,.,.,11,.,1,-2,.,
COCCN(C(=O)c1snc(C(N)=O)c1N)C(C(=O)NC1CCCCC1)c1cc(OC)c(OC)c(OC)c1 (stereo unspecified),-16,2,0,4,i,1,2,-5,
CSc1ncccc1C(=O)OCC(=O)NC(C)C,-19,-3,6,-23,i,0,1,-5,
